HPGD block: inhibitors of human 15-hydroxyprostaglandin dehydrogenase (HPGD); purified HPGD, NADH fluorescence kinetic, PGE2 substrate; Potency, µM, without a hit: top-dose activity change, negative = inhibition, usual class: inhibitors; 150,000 compounds, 4.3% hits; AID 894; active = well fitted inhibition curve with a large enough effect (not every such curve was filed as active); inconclusive = small, poorly fitted or top-dose-only effect, or another doubt; inactive = no such curve, though single readings can be large or run the other way;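 further: top concentration of the series not given in the record; plate controls included wells without enzyme; inactives centre near -10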
Target sequence (P15428 whole entry, looked up): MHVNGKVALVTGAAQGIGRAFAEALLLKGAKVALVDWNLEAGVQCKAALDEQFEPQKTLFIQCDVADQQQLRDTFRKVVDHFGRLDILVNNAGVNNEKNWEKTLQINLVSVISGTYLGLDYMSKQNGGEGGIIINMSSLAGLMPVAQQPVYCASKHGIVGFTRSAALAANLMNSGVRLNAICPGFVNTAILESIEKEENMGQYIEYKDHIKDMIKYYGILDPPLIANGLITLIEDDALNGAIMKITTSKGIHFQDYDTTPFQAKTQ
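20 nM HPGD preincubated 15 min at room temperature with compound in 50 mM Tris-HCl pH 8, 0.01% Tween 20. Started with 1 mM NAD+ and 30 uM prostaglandin E2; NADH fluorescence (360/450 nm) read 5 times over 30-s intervals, last minus first.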
Numbers without * were called inactive; ? = inconclusive; & = joins results of further samples. On the % scale 0 is the no-effect control and ±100 the full control effect; potency means the concentration at half of the fitted maximal effect.

HPGD block,SMILES
?,Cc1ccc(-n2c(-c3ccccc3)n[nH]c2=S)cc1
28µM*,CC(NC(=O)CSc1nnc(CC(=O)Nc2ccc(Cl)c(Cl)c2)n1C)c1ccccc1 (centres undefined)
-19%,CCC(=O)Nc1ccc2nc(C)n(Cc3ccccc3Cl)c(=O)c2c1
-11%,CN1C(=O)/C(=C\c2ccncc2)SC1=Nc1ccccc1
-13%,Cc1ccc(C(=O)NC(=S)Nc2ccc(NC(=O)c3cccs3)cc2)cc1[N+](=O)[O-]
-10%,Cc1ccc(NC(=O)CSCCc2ccccn2)nc1
-4%,C#C[C@]1(O)CC[C@H]2[C@H]3CCC4=Cc5oncc5C[C@]4(C)[C@@H]3CC[C@]21C
-11%,C=CCNC(=O)CN1CCC(n2c(C)nc3cc(C(F)(F)F)ccc32)CC1
-11%,COc1cccc(C2NC(=O)NC(C)=C2C(=O)Nc2ccc(C)cc2)c1 (centres undefined)
-10%,COCC(C)NC(=O)C(C)Oc1ccccc1 (centres undefined)
-4%,O=C(NCc1ccco1)NC12CC3CC(CC(C3)C1)C2
-8%,Cc1ccc(NC(=O)c2ccc(S(=O)(=O)N3CCOCC3)cc2)nc1
-13%,CC1CCN(CC(O)COc2cccc(F)c2)CC1 (centres undefined)
-25%,Cc1cc(=O)oc2cc(OCc3ccc(C(=O)N4CCN(c5ccc([N+](=O)[O-])cc5)CC4)cc3)ccc12
1%,COc1ccc(NC(=O)C2CCCN2C(=O)OCc2ccccc2)c(OC)c1 (centres undefined)
-6%,Cc1ccccc1Cc1c(C)nc2ncnn2c1C
-4%,Fc1ccc([C@H]2CCNC[C@H]2COc2ccc3c(c2)OCO3)cc1
14µM*,FC(F)Oc1ccc(NC(=S)NCc2ccccc2)cc1Cl
-25%,O=C(Oc1ccc2c3c(c(=O)oc2c1)CCCC3)c1ccco1
?,Cc1ccccc1NC(=O)CSc1nc(N)c2c3c(sc2n1)CSC(C)(C)C3
-17%,O=C(CSc1cccc2cccnc12)OCC(=O)c1ccccc1
-12%,O=C(NCC1CCCO1)C(=Cc1cccc([N+](=O)[O-])c1)C(=O)NCC1CCCO1 (centres undefined)
?,CCCC1C(C(=O)OCC)=C(C)NC(C)=C1C(=O)OCC
-7%,CCC/C(O)=C1\C(=O)CCCC1=NCCCCCC(=O)O
-7%,CCCN(CCO)Cc1ccc2ccccc2c1
-5%,CCCC(=O)C1C(=O)CC(C)(C)C(c2cc(C)no2)C1=O (centres undefined)
-19%,CCOC(=O)C1(CC)Oc2ccccc2C(c2ccc(OC)cc2)=C1C(=O)OC (centres undefined)
-11%,O=C(N/N=C1\CCc2ccccc21)c1ccccc1O
-25%,CC(C)c1ccc(/C=C/C(=O)NCCC2=CCCCC2)cc1
-15%,O=C(COC(=O)Cn1cnc2ccccc2c1=O)Nc1cc(Cl)ccc1[N+](=O)[O-]
?,Cc1ccc(-c2nc3ncccc3o2)cc1NC(=O)CC(C)C
-21%,CCCCN(CC)Cc1ccc(CNC(=O)Nc2ccc(OC)cc2OC)o1
-3%,COc1ccc(C)cc1NC(=O)C(OC(=O)CNC(=O)c1cc(C)cc(C)c1)c1ccccc1 (centres undefined)
-18%,CCCCCOC(=O)c1ccccc1C(=O)O
-12%,CC12CCC(C(N)=O)(C1Br)C2(C)C (centres undefined)
?,COc1ccc(CC(=O)N2CCN(c3ccccn3)CC2)cc1
-11%,COc1ccc(-c2nc(CNS(=O)(=O)c3ccc(OC)c(OC)c3)cs2)cc1
-26%,CC1CN(S(=O)(=O)c2cccc(C(=O)Nc3ccc4c(c3)CCC4)c2)CC(C)O1 (centres undefined)
32µM*,O=C(NC1CCCCC1)c1cccs1
-20%,COC(=O)c1ccccc1NC(=O)COc1ccccc1
-7%,Cc1ccc2[nH]c(O)c(N=NC(=O)C(C)n3cnc4ccccc4c3=O)c2c1 (centres undefined)
-5%,COc1ccc(CSc2nnc(C)n2N)cc1Br
-21%,N#Cc1c2c(c(Nc3ccccc3)n3c1nc1ccccc13)CCC2
?,CCn1c(=O)cc(OCC(=O)N2CCN(c3cccc(C(F)(F)F)c3)CC2)c2ccccc21
-5%,O=S(=O)(c1ccccc1)N1CCC2(CC1)CN(Cc1ccccc1)C2
-11%,CC(C)C(C(=O)Nc1nccs1)c1ccccc1 (centres undefined)
-12%,Brc1cnc(N2CCCCC2)nc1N1CCOCC1
-3%,CCCCc1nnc(NC(=O)C(C)Sc2nc(N)cc(=O)[nH]2)s1 (centres undefined)
35µM*,CCn1c(=N)n(CC(=O)c2cccc(OC)c2)c2ccccc21
-9%,CC1CCc2cc(F)ccc2N1C(=O)CSc1nnc2c3cc(F)ccc3n(C)c2n1 (centres undefined)
1%,CCN(CC)S(=O)(=O)c1ccc(Cl)c(C(=O)NCC2CCCO2)c1 (centres undefined)
-13%,CCCCCOc1ccc(CSc2ncn[nH]2)cc1
-28%,COc1cc(C(=O)OCC(=O)Nc2ccc(SC(F)F)cc2)cc(OC)c1OC
-11%,COc1ccc(/C=N/n2cnc3c([nH]c4ccc(Br)cc43)c2=O)cc1CN1CCOCC1
-13%,CN(C)S(=O)(=O)c1ccc(C(=O)NC(=O)CSc2ccccc2)cc1
2%,CC(C)(C)c1ccc(CS(=O)CC(O)CO)cc1 (centres undefined)
-10%,COc1ccc(N(C)C(=S)Nc2ccc3nc(C)c(C)nc3c2)cc1
-12%,CCOC(=O)N1CCN(CC(O)COc2ccccc2C(C)CC)CC1 (centres undefined)
-13%,NC(=O)c1ccccc1NC(=O)/C=C/c1ccccc1
?,CC(C)c1ccc2oc(-c3ccc(NC(=O)c4ncn[nH]4)cc3)nc2c1

Other compounds
HPGD block,SMILES
-21%,COC(=O)c1ccc(CSc2nnc(Nc3ccccc3OC)s2)o1
-4%,COc1ccc(C(=O)Nc2ncc3c(n2)CC(c2ccco2)CC3=O)cc1 (centres undefined)
2%,CCc1ccc(CN(C)CC(=O)Nc2sccc2C#N)cc1
?,COc1ccc(-c2ccc(S(=O)(=O)NCC3CCCO3)cc2)cc1 (centres undefined)
-5%,COc1ccc(/C=N/NC(=O)c2cccc(OC(F)(F)C(F)F)c2)cc1O
-6%,Cc1ccc(S(=O)(=O)Nc2ccc3c(c2)CCC3)cc1C
0%,Fc1ccc(CSc2nncn2NC/C=C/c2ccccc2)cc1
-10%,CCn1c(CCC(=O)Nc2cc(F)ccc2C)nc2cc(S(=O)(=O)N(C)C)ccc21
?,CCCc1cc(C(F)(F)F)c(C#N)c(=O)[nH]1
-4%,CCCc1ccc(S(=O)(=O)NCCc2ccncc2)cc1
?,N#Cc1cc(N)ccc1Sc1ccccc1
-1%,CC(C)Sc1nnc(CNC(=O)C23CC4CC(CC(C4)C2)C3)n1C1CCCCC1
-1%,COc1ccc(N2CCN(C(=O)CN(c3cccc(Br)c3)S(C)(=O)=O)CC2)cc1
-15%,COc1cccc(CNC(=O)C2CCCN(c3nn4c(=O)cc(C)nc4s3)C2)c1 (centres undefined)
-2%,Cc1ccc(-c2c(C)cc3oc(=O)cc(-c4ccccc4)c3c2C)cc1
1%,C=CCN1CCN(C(c2ccccc2)c2nnnn2CCC(C)C)CC1 (centres undefined)
-8%,COC(=O)[C@@H]1C[C@H]2CC[C@H](O)C[C@H]2N1Cc1ccc(N2CCN(C)CC2)cc1
-7%,CCOc1cc(C2CC(=O)NC3=C2C(=O)C(C(=O)OC)C(C)C3)cc(Br)c1O (centres undefined)
-17%,Cc1cc(/C=N/NC(=O)c2c(Br)cnn2C)c(C)n1-c1cccc(Br)c1
-15%,O=c1[nH]c(=O)c2nc3ccccc3nc2[nH]1
20µM*,O=C1O/C(=C/Br)CCC1c1cccc2ccccc12 (centres undefined)
-13%,COc1cccc(CN(CC2CCCO2)S(=O)(=O)c2ccc(S(=O)(=O)N(C)C)cc2)c1 (centres undefined)
-11%,Cc1cccc(NC(=O)CN2C(=O)N/C(=C/c3cc(C)n(-c4ccncc4)c3C)C2=O)c1
-8%,O=C(Nc1cccnc1)C1(c2ccccc2)CCCC1
-11%,CCOC(=O)C1=C(C)Nc2ccccc2N=C1NC(=O)Cc1ccc(OC)cc1
?,COc1ccc(-c2[nH]c(-c3ccc(C(=O)O)cc3)nc2-c2ccccc2)cc1
-8%,CN(C)C(=O)c1ccccc1-c1ccccc1
3%,CC(C)NC(=O)C1(c2ccccc2)CC1(Cl)Cl (centres undefined)
-17%,Cc1nc2cnc(Nc3ccccc3)nc2n(C)c1=O
-15%,COc1ccc(Cl)cc1NC(=O)c1cccc(NC(=O)CCC(=O)O)c1
?,CC(=O)c1cnc2cc(-c3ccc(C)cc3)nn2c1C
-30%,Cc1cc(C(=O)OCC(=O)N2CCOCC2)c2ccccc2n1
-8%,CCn1c(=O)n(CC(=O)N2CC(C)CC(C)C2)c(=O)c2ccccc21 (centres undefined)
-8%,COC(=O)Cn1c(=NC(=O)CSC(C)=O)sc2ccccc21
-12%,C/C1=C2N=C(/C=C3N=C(/C(C)=C4\[N-]C(C)(C5N=C1C(C)(CCC(=O)NCC(C)OP(=O)([O-])O[C@H]1C(O)C(n6cnc7cc(C)c(C)cc76)O[C@@H]1CO)C5CC(N)=O)C(C)(CC(N)=O)C4CCC(N)=O)C(C)(CC(N)=O)C\3CCC(N)=O)C(C)(C)C/2CCC(N)=O.[CH2-]C1OC(n2cnc3c(N)ncnc32)C(O)C1O.[Co] (some centres undefined)
1%,Cc1ccc(NC(=O)C2CC(=O)OC23CCOC(C)(C)C3)cc1 (centres undefined)
-3%,COC(=O)COC(=O)c1ccc(O)cc1
-13%&-3%,CCCCCCCC1=Cc2ccc(F)cc2C(C(C(=O)OC)C(=O)OC)N1C(=O)OC (centres undefined)
-21%,CC(=O)/C(=N/Nc1ccc(Br)cc1)Sc1cccc2cccnc12
-4%,CCCCn1c(NCc2ccccn2)nc2ccccc21
?,CCN1C(=O)c2cccc3cccc1c23
-23%,Cc1ccc2oc(C(=O)Nc3nnc(C)s3)c(C)c2c1
-1%,O=C(CSc1nnc(CN2CCOCC2)n1-c1ccc(Cl)cc1)Nc1cc(Cl)ccc1O
-1%,Cc1nnc(SCC(=O)Nc2ccc(Cl)cn2)s1
2%,Cc1ccc(NC(=O)C(c2ccc(Cl)cc2Cl)N2CCCC2)cc1 (centres undefined)
-11%,Cc1ccc(/C(O)=C2/C(=O)C(=O)N(CCN3CCOCC3)C2c2cccs2)cc1 (centres undefined)
-4%,O=C(N/N=C/c1cccc([N+](=O)[O-])c1)c1cc2ccccc2o1
-7%,Cc1ccc(C)c(NC(=O)C2CC(Cl)=CCC2C(=O)O)c1 (centres undefined)
-15%,CSC(=NC1CCCCC1)NS(=O)(=O)c1ccccc1
-25%,COc1ccc(OC)c(NC(=O)c2cc3c(Cl)nc4ccccc4c3s2)c1
-19%,CSc1nc(N)nc(SCC(=O)CC(=O)OC(C)C)c1C#N
3%,CCN1CN(CCc2ccccc2)CNC1=S
-7%,CC(C)N(C(=O)CN1C(=O)NC2(CCCCCC2)C1=O)C(C)C
?,CCc1cc2c(=O)c(-c3nc4ccccc4n3C)c(C)oc2c(CN2CCN(C)CC2)c1O
-8%&-7%,CCCCO
?,CC(=O)N1c2ccccc2C2(O)N=C(C)SC12 (centres undefined)
-5%,Cc1ccc(S(=O)(=O)N[C@@H](CC(C)C)C(=O)NCc2ccco2)cc1
-2%,C=C1C[C@]23CC[C@H]4C(CO)(CO)C[C@@H](O)C[C@@]4(C)[C@@H]2CC[C@H]1C3
-4%,CCn1c(SCc2nc3ccccc3[nH]2)nnc1-c1ccc(OC)cc1
-15%,COc1ccc(NC(=O)C(=O)N/N=C/c2cccnc2)c(OC)c1

Following part:
HPGD block,SMILES
-20%,O=c1c(Cl)c(NCc2ccccc2Cl)cnn1C12CC3CC(CC(C3)C1)C2
1%,CCN(CC)S(=O)(=O)c1cccc(NC(=O)COC(=O)CCC(=O)c2ccc(F)cc2)c1
-9%,CC(C)CN(CC(C)C)C(=O)CCCC(=O)N(CC(C)C)CC(C)C
-6%,O=C(c1cnccn1)N1CCC2(CCN(Cc3cc(C(F)(F)F)cc(C(F)(F)F)c3)CC2)CC1
-17%,CC(C)c1ccc(/C=C/C(=O)NC2=NCCS2)cc1
-5%,CCOc1ccc(NC(=O)CCC(=O)c2ccc(-c3ccccc3)cc2)cc1

A portion of the library, so the mix of outcomes need not match the whole.
